Compound activity (PubChem)
Calb biofilm kill – mixture kills Candida albicans biofilm cells; C. albicans biofilm persisters + clotrimazole, fluorescence viability; primary screen in compound mixtures of four per well; inhibition, % at 7.6 µM; 120,000 tested, 0.02% active;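 active means inhibition above 30.3% in the primary screen of four-compound pools, then above 30% when the compound was retested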;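 further: compounds exposed to preformed 24 h biofilms for 48 h; the number belongs to the whole pool; some results filed as inactive read as strong as hits; inactives centre near 12; 0% = biofilm with clotrimazole alone and 100% = kill control; retested singly at about 60 µM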
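Test system: C. albicans CAF4-2 wild-type biofilms; buffer or medium: RPMI/MOPS medium, pH 7.0; schedule: 24 h biofilm formation, then 48 h compound exposure, 37 °C; detection: Alamar Blue fluorescence; measure: percent inhibition of biofilm viability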
The depositor's hits bear a star. The list is partial; count on the stated rates, not on these rows.

molecule	Calb biofilm kill
COc1ccc(CCN(Cc2cc3ccc(C)cc3n3nnnc23)C(C)=O)cc1OC	14
Cc1ccsc1C(=O)Nc1nc2ccccc2[nH]1	25
CCCCn1c(O)c(/C=C2\C=NN=C2c2ccccc2)sc1=S	-4
Oc1ccc(N2CCN(Cc3ccc(OCCCN4CCCCC4)cc3)CC2)cc1	19
CC(C)Cc1ccc(C(C)C(=O)Nc2ccccc2O)cc1 (stereo unspecified)	15
COc1cc(OC)c(NC(=O)c2ccc3c(SCC(=O)O)c4c(nc3c2)CCCC4)cc1Cl	4
S=c1[nH]nc(-c2ccncc2)n1/N=C/c1cccc2ccccc12	1
CCOC(=O)Cn1nc(C)c(NC(=O)COc2ccc(C)c(C)c2)c1C	19
COc1ccc(C(=O)NN=C(Cc2ccccc2)Cc2ccccc2)cc1OC	8
CCN(CC)S(=O)(=O)c1ccc2nnn(O)c2c1	3

Entries from the list above that have an NH in an aromatic ring:
molecule	Calb biofilm kill
Cc1ccsc1C(=O)Nc1nc2ccccc2[nH]1	25
S=c1[nH]nc(-c2ccncc2)n1/N=C/c1cccc2ccccc12	1

Next results follow:
molecule	Calb biofilm kill
Cc1ccc(NC(=O)c2oc(=O)c3ccccc3c2-c2ccccc2)c(C)c1	11
O=C(CN1C(=O)CSCC1=O)NCc1ccc(F)cc1	-2
CCn1ccnc1CN(C)Cc1nc(-c2cccc(Cl)c2)no1	11
Cc1c(N=C2NC(=O)/C(=C/c3cccc([N+](=O)[O-])c3)S2)c(=O)n(-c2ccccc2)n1C	10
COc1cc(NS(=O)(=O)c2ccc(NC(=S)NC(=O)c3ccco3)cc2)ncn1	10
COc1ccc(CCNC(=O)COC(=O)Cc2cccc3ccccc23)cc1	2
O=S1(=O)CCN(OCc2ccc(Cl)cc2)CC1	10
CC(NC(=O)C(=O)N/N=C\c1cccc([N+](=O)[O-])c1)c1ccccc1 (stereo unspecified)	25
Cc1ccc(-n2c(-c3ccncc3)n[nH]c2=S)cc1	25
C=CCn1c(=NC(=O)c2ccco2)sc2cc(C(=O)OCC)ccc21	15
O=C1C2C(c3ccccc3)C=CC(c3ccccc3)C2C(=O)N1c1cccnc1 (stereo unspecified)	5
Cc1ncc([N+](=O)[O-])n1Cc1ccc(Br)cc1	16
Cc1ccnc(NC(=O)C(C)N2C(=O)c3ccccc3C2=O)c1 (stereo unspecified)	20
COC(=O)CC1(c2ccc(OC)cc2)C(=O)c2ccccc2C1=O	17
CSC1=NCCN1C(=O)C12CC3CC(CC(C3)C1)C2	31
Nc1ccc2nc(SCc3ccccc3F)sc2c1	6
O=C(CSc1nc2ccccc2c(=O)n1CCCO)N1CCc2ccccc21	20
S=c1[nH]nc(-c2cccc(Cl)c2)n1/N=C/c1ccc(-c2ccccc2Br)o1	12
CCCCNC(=O)CSc1nc2n[nH]c(C)c2c(=N)n1-c1cccc(Cl)c1C	9
CCNC(=S)N1CCN(CC(=O)Nc2ccc(Br)cc2)CC1	15
C#CCSc1[nH]c(=O)cc(C)c1C#N	1
CCOC(=O)CC/C(C)=N\N=C1\SC(CC(=O)O)C(=O)N1c1ccccc1 (stereo unspecified)	16
C=C(C)Cn1c(-c2cccs2)n[nH]c1=S	21
CC1=C([N+](=O)[O-])C(c2ccccc2C(F)(F)F)NC(=O)N1C (stereo unspecified)	33
CN(C)C(=O)C[n+]1cccc(/C=N/O)c1	12
COc1ccccc1NC(=O)N1c2ccccc2NC(=O)CC1C (stereo unspecified)	10
N/C(=N\OC(=O)c1cccc2ccccc12)c1ccccn1	31
COc1ccc(-c2csc(NC(=O)CSc3nnc(Nc4ccccc4C)s3)n2)cc1	11
Nc1nc(CSC(=S)N2CCOCC2)nc(Nc2ccc(F)cc2)n1	9
O=C(COC(=O)c1cn(-c2ccccc2)nc1-c1cccnc1)NC1CC1	20
Cc1ccc(Nc2ncnc3sc(C)c(C)c23)cc1	13
CC(C)Oc1cccc(C(=O)C2CCCN(Cc3cnc(N4CCCC4)s3)C2)c1 (stereo unspecified)	11
O=C(CCC(=O)NNC(=O)COc1ccc(Br)cc1Br)NCc1ccccc1	3
Cc1ccc(C(=O)Nc2cccnc2)cc1S(=O)(=O)N1CCCCC1	29
NS(=O)(=O)c1ccc(CNC(=O)/C=C/c2ccc(Cl)c(Cl)c2)cc1	14
COc1ccc(Cl)cc1C(=O)NCc1ccco1	14
O=C1Nc2ccccc2/C1=N\c1sc2c(c1C(=O)Nc1ccccc1)CCCC2	12
CN(Cc1ccccc1)S(=O)(=O)c1ccc(Cl)c(C(=O)NCc2ccc3c(c2)OCO3)c1	9
COc1ccc(NC(=S)NNC(=O)Cn2nc(C(F)F)cc2C(F)F)cc1	12
O=C1OCC2=C1C(c1ccc(F)cc1)c1cc3c(cc1N2)OCO3 (stereo unspecified)	16

The list continues.
SMILES	Calb biofilm kill
Cc1ccc(-c2csc3nc(C(C)C)oc(=O)c23)c(C)c1	8
CCOc1ccc(-c2nc(-c3cccnc3)no2)cc1	8
Cc1cc(Cl)ccc1OCCCC(=O)OCC(=O)c1c(N)n(C)c(=O)n(C)c1=O	14
O=C(NC(=O)c1c(Cl)cccc1Cl)Nc1ccc(Oc2cccnc2)nc1	7
O=c1c(Cl)c(N2CCN(S(=O)(=O)c3ccccc3)CC2)cnn1-c1ccccc1	5
CCC(c1nnnn1Cc1ccc(F)cc1)N1CCN(C)CC1 (stereo unspecified)	7
Cn1ncc(S(=O)(=O)Cc2ccccc2)c(Cl)c1=O	9
O=C(Oc1ccc(/C=N/Nc2nc(N3CCCCC3)nc(N3CCCCC3)n2)cc1)c1ccco1	11
CCOC(=O)c1cnc2nc(SC)nn2c1N	13
O=C(Nc1c[nH]c(=O)[nH]c1=O)c1ccc([N+](=O)[O-])cc1	7

Grouped by structure: the compounds so far containing a furan ring, fused or not (5)
SMILES	Calb biofilm kill
COc1cc(NS(=O)(=O)c2ccc(NC(=S)NC(=O)c3ccco3)cc2)ncn1	10
C=CCn1c(=NC(=O)c2ccco2)sc2cc(C(=O)OCC)ccc21	15
S=c1[nH]nc(-c2cccc(Cl)c2)n1/N=C/c1ccc(-c2ccccc2Br)o1	12
COc1ccc(Cl)cc1C(=O)NCc1ccco1	14
O=C(Oc1ccc(/C=N/Nc2nc(N3CCCCC3)nc(N3CCCCC3)n2)cc1)c1ccco1	11

Later entries
SMILES	Calb biofilm kill
CC(=O)Oc1c(-c2ccco2)oc2ccccc2c1=O	13
CCN(C(=O)CSc1nnc2ccccn12)C1CCS(=O)(=O)C1 (stereo unspecified)	13
CCc1c(C(=O)OCc2ccccc2)[nH]c(C)c1C	16
COc1ccc(C2/C=C\CN(C(=O)c3ccc(C)cc3)CC(=O)N2Cc2ccc(F)cc2)cc1 (stereo unspecified)	16
O=C(NNC(=O)c1sccc1-n1cccc1)Nc1ccccc1	4
O=C(O)CCCCn1c(SCC(=O)Nc2ccccc2C(F)(F)F)nc2ccsc2c1=O	19
COc1ccc(C2C(C(=O)c3ccco3)=C(O)C(=O)N2CC2CCCO2)cc1 (stereo unspecified)	20
CCNC(=O)/C(=C\c1ccccc1)NC(=O)/C=C/c1ccccc1	-4
CCOC(=O)c1c(NC(=O)CSc2nncs2)sc(C)c1-c1ccccc1	9
CCc1ccc(NC(=O)COc2ccc(/C=C(/C#N)c3nc4ccccc4[nH]3)cc2OC)cc1	-8
Cc1cccc(NS(=O)(=O)c2ccc3c(c2)Cc2cc(S(=O)(=O)Nc4cccc(C)c4C)ccc2-3)c1C	19
CCN(CC)S(=O)(=O)c1cc(NC(=O)CSc2nnc(-c3cccs3)o2)ccc1C	13
CC(C)(C)c1ccccc1OCCCCCn1ccnc1	6
Cc1ccc(OCCN2CCN(CC(O)Cn3c4ccccc4c4ccccc43)CC2)cc1 (stereo unspecified)	19
COc1ccc(OCCNC(=O)c2ccccc2OCC(=O)Nc2ccc(NC(C)=O)cc2)cc1	18
CCOC(=O)Cn1c2c(c(=N)c3c1CCC3)CCCC2	15
Oc1ccc(/C=C/c2ccc3ccccc3n2)cc1	10
CCCN(CCC)S(=O)(=O)c1ccc(C(=O)Nc2nc3c(s2)CCc2ccccc2-3)cc1	8
Cc1c(NC(=O)C(C)N2C(=O)NC3(CCC(C)CC3)C2=O)c(=O)n(-c2ccccc2)n1C (stereo unspecified)	10
COc1cccc(CN(C)CC(=O)Nc2sc3c(c2C#N)CCC3)c1	11
COc1ccc(NC(=O)c2c([N+](=O)[O-])c(C(C)(C)C)nn2C)cc1	7
CCC(C)(C)C1CCC(=NNC(=S)Nc2cccnc2)CC1 (stereo unspecified)	10
Cc1[nH]c2ccccc2c1N=Nc1cccc(C(=O)O)c1	15
COc1ccc2oc(N)c(C=O)c(=O)c2c1	24
COC(=O)c1cc(=O)nc2scc(C)n12	18
O=C(NCc1ccc2c(c1)OCO2)C(=S)N1CCOCC1	14
CCCCNCc1cc(Br)c(OCC(=O)NCc2ccccc2)c(OC)c1	15
C=CCN1C(=O)C(Cc2ccc(OC)cc2)SC1=Nc1ccc(C(=O)O)cc1 (stereo unspecified)	8
COc1ccccc1N(C)S(=O)(=O)c1ccc(C(=O)OC(C)C(=O)NCc2ccc3c(c2)OCO3)cc1 (stereo unspecified)	-8
CCOC(=O)c1c(NC(=O)c2noc(C)c2[N+](=O)[O-])sc(C(C)=O)c1C	18
COc1ccc(OC)c(NC(=O)[C@@H]2CCCN2C(=O)c2cccs2)c1	19
O=C(C(c1ccccc1)c1ccccc1)N1CC[C@@]2(O)CCCC[C@H]2C1	15
COc1ccc(-n2c(CNC(=O)COc3ccc(Cl)cc3)n[nH]c2=S)cc1	12
CCCN(CCC)c1nc(N(CCC)CCC)[nH]c(=O)n1	15
COC(=O)CCCC1=CC2=C(c3ccccc3)C(=O)C(C)(OC(=O)C3CCCC3)C(=O)C2=CN1CCCCO (stereo unspecified)	16
CCN(CC)S(=O)(=O)c1cccc(-c2n[nH]c(=S)n2C)c1	17
Cc1c(NC(=O)CN2C(=O)NC3(CCCC3)C2=O)c(=O)n(-c2ccccc2)n1C	6
CCN(c1ccccc1)S(=O)(=O)c1cccc(C(=O)NCC(c2cccs2)N(C)C)c1 (stereo unspecified)	15
CCOc1ncccc1C(=O)OCC(=O)Nc1ccc(-c2nc3ccc(C)cc3s2)cc1	12
Cc1c(Cl)cccc1NC(=S)N=Nc1c(O)n(CN2CCOCC2)c2ccccc12	19
CCc1cccc(C)c1NC(=O)Nc1ccc2c(c1)OCO2	1
COC(=O)C1=C(NC(=O)c2ccc(Br)cc2)CCS1	14
COCc1cc(C)nc2sc(C(=O)NCCO)c(-n3cccc3)c12	10
CCCCCSc1nnc(N)s1	10
COC(=O)c1cc2c(ccn2C)n1C	15
Oc1c(N=NC(=S)Nc2ccccc2F)c2ccccc2n1Cc1ccccc1F	14
COc1cccc(/C=N/NC(=O)c2cnccn2)c1	1
Oc1ccc(Cc2ccc(Cl)cc2)c(O)c1	23
CN1CCN(/N=C/c2ccc(C#N)cc2)CC1	13
Nc1nnnn1CC(=O)N/N=C/c1cccs1	11

Grouped by structure, the compounds so far containing a cyano group.
SMILES	Calb biofilm kill
C#CCSc1[nH]c(=O)cc(C)c1C#N	1
CCc1ccc(NC(=O)COc2ccc(/C=C(/C#N)c3nc4ccccc4[nH]3)cc2OC)cc1	-8
COc1cccc(CN(C)CC(=O)Nc2sc3c(c2C#N)CCC3)c1	11
CN1CCN(/N=C/c2ccc(C#N)cc2)CC1	13

Remaining list, next part
SMILES	Calb biofilm kill
Cn1ncc2c(Nc3ccc(O)cc3)nc(Cl)nc21	28
COc1ccc(-n2c(=O)[nH]c3c(C(N)=O)nc(C4CCCCC4)nc32)cc1	16
O=C(COC(=O)C1CC2C=CC1C2)Nc1cccc(S(=O)(=O)N2CCOCC2)c1 (stereo unspecified)	7
CCc1nnc(NC(=O)CCC(=O)N2CCN(C3c4ccccc4-c4ccccc43)CC2)s1	7
Cn1c(C2=C(O)CN(c3ccccc3)C2=N)nc2ccccc21	5
CCn1cc(Cl)c(C(=O)Nc2ccc3c(c2)OCCO3)n1	16
Cc1cc(NC(=O)COC(=O)c2oc3c(Cl)cccc3c2C)no1	16
COc1cccc(Cc2n[nH]c(=S)n2Cc2ccco2)c1	5
COc1ccc(N(C(=O)CSCC(=O)Nc2cc(C)on2)C(C(=O)NC2CCCCC2)c2ccc(O)c(O)c2)cc1 (stereo unspecified)	12
O=C(NC1CCN(Cc2ccccc2)CC1)c1cncc(Br)c1	8
CCc1nnc(N/N=C/c2ccc(-c3ccc([N+](=O)[O-])cc3)o2)n1N	10
COc1ccc(-c2[nH]n(-c3ccc([N+](=O)[O-])cc3)c(=O)c2C=NCCN2CCNCC2)cc1	9
CCC(=O)c1ccc(OCCn2cnc3ccccc32)cc1	22
O=C(COC(=O)/C=C/c1ccc(Cl)cc1)Nc1ccc2c(c1)OCCO2	18
Cc1c(Cl)c([N+](=O)[O-])nn1CCCC(=O)Nc1c(C)n(C)n(-c2ccccc2)c1=O	8

Look-ups from the entries so far:
Cc1c(Cl)c([N+](=O)[O-])nn1CCCC(=O)Nc1c(C)n(C)n(-c2ccccc2)c1=O @ Calb biofilm kill: 8
CCC(=O)c1ccc(OCCn2cnc3ccccc32)cc1 @ Calb biofilm kill: 22
CCc1nnc(N/N=C/c2ccc(-c3ccc([N+](=O)[O-])cc3)o2)n1N @ Calb biofilm kill: 10
COc1ccc(-c2[nH]n(-c3ccc([N+](=O)[O-])cc3)c(=O)c2C=NCCN2CCNCC2)cc1 @ Calb biofilm kill: 9
